MgrA-DNA mod: modulators of Staphylococcus aureus MgrA DNA binding. actives 0.13% (n = 84,000). fluorescence polarization. inhibition, %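 (about 10 µg/mL by stock and volumes)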;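 active means above 50% in either of two replicates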;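 further: 0% = protein plus DNA without compound and 100% = DNA alone without protein; higher means less MgrA bound to DNA so lower polarization; one replicate is shown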
Sa helicase inh: blocks Staphylococcus aureus DNA helicase; inhibition, %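 (tested at about 80 µM)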; actives 0.05% (n = 120,000); purified S. aureus helicase, fluorescence unwinding assay; about half of the hits fall short of the stated cut;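 active means both duplicates at 50% or more, or one of them with a favoured structure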;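 further: 0% = mean of negative control wells and 100% = mean of positive control wells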
* hit, by the source's call; nt = not tested or not shown; & = joins results of further samples. This is a subset; count on the stated rates, not on these rows.

SMILES	MgrA-DNA mod	Sa helicase inh
CC(NC(=O)COc1ccccc1)C(=O)N1CCN(c2ccccc2)CC1 (stereo not drawn)	nt	2.0
CCOc1ccccc1NC(=O)/C(C#N)=c1\s/c(=C\c2ccco2)c(=O)n1-c1c(C)cccc1C	nt	-24.0
CSC1=NCCN1C(=O)C1c2ccccc2Oc2ccccc21	nt	6.0
C/C(=N\NC(=O)c1cc2c3ccccc3n(C)c2s1)c1ccc(OCC(N)=O)cc1	nt	-36.0
CCOc1cc(/C=c2/sc3n(c2=O)C(c2ccc(OC(C)=O)cc2)C(C(=O)OC)=C(C)N=3)ccc1OC(C)=O (stereo not drawn)	-2.3	nt
C=CCSc1nc2c(cnn2-c2ccccc2)c(=O)[nH]1	nt	17.0&8.0
C=CCNC(=S)N/N=C1\CCc2ccccc21	nt	-5.0
Cn1c(CSc2nc(N)cc(N)n2)nnc1SC/C=C/c1ccccc1	nt	5.0
CC(=O)Nc1ccc(NC(=O)C(C)Oc2ccccc2)cc1 (stereo not drawn)	-1.4	-19.0
c1ccc(CSc2nccc(-c3ccco3)n2)cc1	-0.9	nt
CCC(CC)c1nnc(NC(=O)c2cccs2)s1	2.2	10.0
Cc1cc2ccccc2n1CCNC(=O)C(C)(C)C	nt	-20.0

Given field by field: entries from further up.
C/C(=N\NC(=O)c1cc2c3ccccc3n(C)c2s1)c1ccc(OCC(N)=O)cc1
- MgrA-DNA mod: nt
- Sa helicase inh: -36.0
CCOc1cc(/C=c2/sc3n(c2=O)C(c2ccc(OC(C)=O)cc2)C(C(=O)OC)=C(C)N=3)ccc1OC(C)=O (stereo not drawn)
- MgrA-DNA mod: -2.3
- Sa helicase inh: nt

Arranged by the number under MgrA-DNA mod (high to low): 4 from the list above.
canonical_smiles	MgrA-DNA mod
CCC(CC)c1nnc(NC(=O)c2cccs2)s1	2.2
c1ccc(CSc2nccc(-c3ccco3)n2)cc1	-0.9
CC(=O)Nc1ccc(NC(=O)C(C)Oc2ccccc2)cc1 (stereo not drawn)	-1.4
CCOc1cc(/C=c2/sc3n(c2=O)C(c2ccc(OC(C)=O)cc2)C(C(=O)OC)=C(C)N=3)ccc1OC(C)=O (stereo not drawn)	-2.3

Next records follow.
SMILES	MgrA-DNA mod	Sa helicase inh
CCCN(CCC)C(=O)CC(c1ccccc1)c1cc(C)ccc1O (stereo not drawn)	2.0	8.0
O=C(c1cnn2c1NC(c1ccc(Br)cc1)CC2C(F)(F)F)N1CCN(C(c2ccccc2)c2ccccc2)CC1 (stereo not drawn)	-2.2	nt
CCCCc1nnc2sc(NC(=O)COc3ccc(C)c(C)c3)nn12	nt	-13.0
COc1ccc(S(=O)(=O)N(CCc2ccccc2)CC(N)=O)cc1	-2.1	8.0
O=C(O)CC(NCc1ccco1)C(=O)Nc1ccc(Cl)cc1 (stereo not drawn)	0.2	12.0
Cc1nc2cc(S(=O)(=O)N3CCC(C(=O)NC4CCCCC4C)CC3)ccc2n1C1CCCC1 (stereo not drawn)	nt	-4.0
CSC(=S)N/N=C/c1ccccc1	nt	-4.0
O=C(NC1=NCCS1)C12CC3CC(C1)CC(C(=O)NC1=NCCS1)(C3)C2	0.2	14.0
CCCS(=O)(=O)N1CCN(Cc2ccco2)CC1	-1.2	-12.0
Cc1nnc(NC(=O)COc2ccc(Cl)cc2)s1	nt	18.0
Cc1ccc(-n2c(SCC(N)=O)nc(O)c(C)c2=O)cc1	2.1	-1.0
COc1ccc(-n2nnc3c(=O)n(Cc4ccc(C)cc4)cnc32)cc1	nt	-13.0
C=C(C)CN1CCN(c2cc(-c3ccccc3)c(C#N)c3nc4ccccc4n23)CC1	nt	3.0
Cc1nc(NCc2ccccc2)ncc1C(=O)O	nt	5.0
COc1ccc(NCC(O)Cn2nnnc2-c2ccccc2)cc1OC (stereo not drawn)	nt	-29.0
O=C(COc1ccccc1)NN=C1CCCCC1	nt	6.0
COc1ccc2c(c1)S(=O)(=O)c1ccccc1N2	0.3	20.0
COc1ccc(CONS(=O)(=O)c2ccc(NC(C)=O)cc2)cc1Cl	-0.2	1.0
COc1cc(OC)c(NC(=O)c2cc3ccccc3cc2O)cc1Cl	1.3	-16.0
Cn1nc(C(F)(F)F)cc1C(=O)O	1.1	-14.0
Cc1ncn2cc(-c3ccc(Cl)cc3)[nH]c(=O)c12	-2.8	nt
COC(=O)c1ccc(CSc2ccccc2NC(=S)Nc2cccc(SC)c2)o1	-0.9	nt
COc1ccc(N2C(=O)c3ccccc3NC2c2ccc(OC)c(CSc3nc4ccccc4s3)c2)cc1 (stereo not drawn)	-0.4	nt
COC(=O)Oc1ccc2c3c(c(=O)oc2c1)CCCC3	nt	-25.0
O=C(CN1C(=O)c2ccccc2C1=O)Oc1ccc(F)cc1	0.5	4.0
Cc1ccc(NC(=O)COC(=O)c2ccccc2S(C)=O)cc1C (stereo not drawn)	nt	9.0
Cc1c(NC(=O)CN2C(=O)c3cccc4cccc2c34)c(=O)n(-c2ccccc2)n1C	0.0	-4.0
O=c1oc2ccccc2nc1/C=C(\O)c1cccs1	nt	-88.0
CCOc1ccc(S(=O)(=O)N2CCN(Cc3ccc4c(c3)OCO4)CC2)c2ccccc12	-1.1	2.0
COc1ccc(NC(=O)C2CCC(CNS(=O)(=O)c3cccc4nsnc34)CC2)c(OC)c1 (stereo not drawn)	nt	2.0
COc1ccc(/C=C/C(=O)N2CCCc3ccccc32)cc1OC	-1.4	16.0
CCN1CCCC1CNC(=O)c1c(C)nn(-c2ccc(F)cc2)c1-n1cccc1 (stereo not drawn)	nt	15.0
O=C(CC1CCCCCCCCCCC1)N1CCOCC1	3.0	11.0
Cc1ccc(-c2nc3cc(NC(=O)COc4ccccc4)ccc3o2)cc1	1.4	21.0
CN(CC(C)(C)NS(=O)(=O)c1ccccc1)C1CCCCC1	-1.7	1.0
C(=NCc1ccccc1)c1cn(-c2ccccc2)nc1-c1cc2ccccc2o1	nt	-5.0
CCn1cc(CCC(=O)NC2CCCC2)c2ccccc21	nt	14.0
O=C(Nc1nc(-c2ccccc2)cs1)c1cccs1	nt	-15.0
O=S(=O)(c1ccc(NC2CCC(O)CC2)nc1)N1CCCC1 (stereo not drawn)	nt	5.0
Cc1ccsc1-c1nc(CSCC(=O)O)c(C)o1	0.7	5.0
CN1C(=O)S/C(=C\C=C\c2ccccc2)C1=O	-1.0	nt
CN(C)CCNC(=O)c1cc2c(s1)-c1ccccc1S(=O)(=O)C2	-1.4	9.0
CN1C/C(=C/c2ccccn2)C(=O)/C(=C/c2ccccn2)C1	2.6	-24.0
CN1CCC/C1=C/C=C1\SC(=S)NC1=O	9.2	-146.0
COc1ccc(-c2csc3nc(-c4ccc(C)cc4)oc(=O)c23)cc1	1.0	nt
COc1ccc(C(F)(F)F)cc1-n1ccc(-c2ccc(C)cc2)nc1=S	3.2	nt
COC(=O)c1cc([N+](=O)[O-])ccc1NC(C)=O	-0.8	nt
COC(=O)Cn1c(=O)c2c(nc3n2CCN3c2ccccc2)n(C)c1=O	1.3	3.0

One compound at a time (already shown).
Cc1nnc(NC(=O)COc2ccc(Cl)cc2)s1 is entered as MgrA-DNA mod: nt; Sa helicase inh: 18.0
CSC1=NCCN1C(=O)C1c2ccccc2Oc2ccccc21 is entered as MgrA-DNA mod: nt; Sa helicase inh: 6.0

(next part)
SMILES	MgrA-DNA mod	Sa helicase inh
CC(=O)Oc1ccc(C)cc1C(O)(C(F)(F)F)C(F)(F)F	1.4	0.0
O=C1NC(=O)N(c2ccc(Cl)cc2)C(=O)/C1=C/c1ccc(Cl)cc1	16.8	-6.0
O=C(COC(=O)c1ccc(F)cc1Cl)NCc1ccco1	3.1	-2.0
CC(=O)Nc1ccc(NC(=O)c2cccc(C(=O)OC(C)C)n2)cc1	-2.4	-1.0
COc1ccc(OC)c(C2NC(C(=O)O)C3C(=O)N(c4cccc(C(=O)O)c4)C(=O)C23)c1 (stereo not drawn)	-2.5	2.0
O=C(c1cccs1)c1cn(CC(=O)N2CCCCCC2)c2ccccc12	5.7	17.0
O=C1c2ccccc2-c2nn(C(=O)c3ccncc3)c3cccc1c23	0.6	-11.0
COc1ccc(/C=C(\C#N)C(=O)NCc2ccco2)cc1C	-1.2	9.0
Cc1ccc(-c2csc3ncn4nnnc4c23)cc1	nt	-35.0
CC(=O)Nc1cc(=O)[nH]c(-c2ccccn2)n1	4.0	nt
Cc1ccc(NC(=O)c2cccc(OC(=S)NCc3ccccc3)c2)cc1	-5.6	8.0
C=Cn1c(C(=O)O)ccc1-c1ccc(CC)cc1	-0.8	-2.0
O=C(CCCOc1ccc(Cl)cc1)NCC1CCCO1 (stereo not drawn)	0.3	3.0
COc1cccc(CSCC(=O)NCc2ccccc2Cl)c1OC	nt	-8.0
Cc1c(CC(=O)O)c(=O)oc2cc3occ(-c4ccc(Cl)cc4)c3cc12	nt	-4.0
COc1ccc(CCNC(=O)c2cc3ccccc3s2)cc1OC	2.2	nt
CCOc1cc(C2NC(C(=O)O)CS2)ccc1OCc1cccc(F)c1 (stereo not drawn)	nt	-8.0
COC(=O)C(N)c1c[nH]c2ccccc12 (stereo not drawn)	2.5	-3.0
COc1ccccc1N1CCN(C(=O)C2CC(=O)N(c3ccccc3)C2)CC1 (stereo not drawn)	-3.1	4.0
Cc1ccccc1NC(=O)c1ccc2ncsc2c1	-1.1	nt
COc1ccc2c(c1)CC/C(=C\c1ccsc1)C2=O	-0.3	13.0
COC(=O)C1CC(O)CN1S(=O)(=O)c1ccc(Cl)cc1 (stereo not drawn)	nt	4.0
CCCCCCCCCCCCN1CNC(=S)NC1	2.4	nt
Cc1cc(O)c(Cc2c(O)cc(C)[nH]c2=O)c(=O)[nH]1	nt	6.0
C=CCSc1nc2ccccc2n1CC(=O)Nc1cccc(C#N)c1	nt	-12.0
Cc1ccc(/C=C2/SC(=S)N(c3ccc(S(=O)(=O)Nc4nccs4)cc3)C2=O)cc1	1.6	nt
COCCCn1c(-c2cccs2)csc1=Nc1ccc(S(=O)(=O)N2CCOCC2)cc1	nt	-14.0
NC(=O)c1c(F)c(F)c(N)c(F)c1F	-0.8	19.0
Cn1c(SCC(=O)Nc2ccccc2)nc2ccccc2c1=O	-1.7	8.0
O=C1c2ccccc2-c2n[nH]c3cccc1c23	-0.4	-17.0
COC(=O)c1ccc(CNC(=O)COc2ccc(Cl)cc2Cl)cc1	-1.4	5.0
Fc1cccc2c1CNC(=S)N2	nt	9.0
CCn1c(C(=O)N2CCCC(C(=O)NC3CCCC3)C2)cc2sccc21 (stereo not drawn)	-0.6	16.0
CCCc1nnc(SCC(=O)NC2CC2)n1CC	0.1	13.0
FC(F)(F)c1cc(-n2cccc2)cc(C(F)(F)F)c1	-1.1	nt
COc1ccccc1CNC(=O)c1ccc(CSc2nc3ccncc3[nH]2)cc1	nt	8.0
CC1CCCC(NC(=O)CSc2nc3ccccc3o2)C1C (stereo not drawn)	nt	6.0
O=C(CCCC(=O)OC1CCCC1)OC1CCCC1	-0.2	-29.0
COCC(C)NC(N)=S (stereo not drawn)	nt	8.0
COC(=O)CNC(=O)c1cccnc1Sc1cc(OC)ccc1OC	0.5	nt
CN=C1SC(CC(=O)Nc2ccc(OC)c(OC)c2)C(=O)N1/N=C(\C)c1ccc(OCC#N)cc1 (stereo not drawn)	nt	3.0
Cc1nn(Cc2ccccc2)c2sc(C(=O)NCc3cccnc3)cc12	nt	-3.0
CCN(CC(=O)Nc1cc(C)on1)Cc1nc2ccccc2c(=O)[nH]1	nt	5.0
O=c1[nH]c(-c2ccc(Cl)cc2)nc(=S)[nH]1	-2.0	nt
CC1CN(c2nc3ccccc3nc2SCC(=O)Nc2ccccc2)CC(C)O1 (stereo not drawn)	-0.2	5.0
Cc1nc(C(F)(F)F)ccc1C(=O)Oc1ccccc1N1CCCCC1	-0.2	nt
N#Cc1ccccc1NC(=O)CSC1=NCCS1	-2.1	3.0
N#CC1=C(N)NC(=S)C(C(N)=O)C1c1ccccc1 (stereo not drawn)	9.8	-1.0
COCc1nnc(NC(=O)c2cccc(NC(=O)C(C)C)c2)s1	nt	7.0
O=C(O)C1C2C=CC(C2)C1C(=O)NCc1ccccc1F (stereo not drawn)	1.3	9.0
COc1ccccc1-c1oc2cc(Cl)ccc2c(=O)c1O	0.1	1.0
FC(F)(F)c1ccc(N2CCN(c3ccccc3)CC2)nc1	nt	14.0
Cc1nn(-c2ncc(C(F)(F)F)cc2Cl)c(C)c1CS(=O)(=O)c1ccccc1	-1.8	nt
CCC(=O)c1ccc(N2CCCC2)c(F)c1	-1.5	11.0
O=C(Nc1cc(-c2cccs2)nn1-c1ccc(F)cc1)C1CCC1	-3.6	nt
Cc1cc2nnc(SCC(=O)NCc3ccco3)n2c2ccccc12	nt	3.0
CCn1cc(CCCC(=O)N2CCc3ccccc32)c2ccccc21	-1.1	6.0
Cc1nc2c(Br)cc(Br)cc2c(=O)o1	0.0	nt
Cc1cc(C)c(NC(=O)c2cc(=O)c3ccccc3o2)c(C)c1	-1.6	-1.0
CCN(CC)Cc1cc2c(-c3ccccc3)cc(=O)oc2c(C)c1O	nt	14.0

The listing continues.
SMILES	MgrA-DNA mod	Sa helicase inh
CN(C(=O)C1CC1)c1ccccc1C(=O)O	nt	12.0
Cc1nc2ccccc2nc1C	nt	-5.0
O=C(O)CC1N=Cc2ccccc21 (stereo not drawn)	1.3	-4.0
COc1cccc(NC(=O)N2CCC3(CC2)Oc2ccccc2C(=O)N3Cc2ccccc2F)c1	nt	-3.0
CC(C)(Oc1ccc(Cl)cc1)C(=O)OCC(=O)N1CCc2ccccc21	-2.2	34.0
CC(C)(C)c1cc2nc(C(F)(F)F)cc(SCCO)n2n1	-1.4	nt
Clc1ccc(N2CCCCC2)nn1	nt	31.0
COC(=O)c1cc(OC(=O)c2ccc(OC)c(OC)c2)n(C)n1	-1.1	4.0
Cc1cc2c(cc1S(=O)(=O)NC1CCCC(C)C1C)OCC(=O)N2 (stereo not drawn)	4.1	4.0
CC(=O)N1N=C(c2ccccc2)CC1c1ccccc1 (stereo not drawn)	2.3	-1.0
CC(C)C(NS(=O)(=O)c1ccccc1)C(=O)N1CCCC1 (stereo not drawn)	-2.9	7.0

Screens deposited in PubChem BioAssay by ICCB-Longwood Screening Facility, Harvard Medical School.
